Source: PubChem (National Center for Advancing Translational Sciences (NCATS))
D2 agonist – Beta-Arrestin HTS for Positive Allosteric Modulators of the Human D2 Dopamine Receptor: Agonists; DiscoveRx PathHunter D2 beta-arrestin, luminescence, 90 min; 100% = 57 uM dopamine signal; activation, % (concentration not given with the values); 360,000 tested, 0.084% active; in the data active = activation above about 40%; inconclusive = about 15% to 40%; inactive = below about 15%; further: compound concentration not given in the record; the text of the record calls up to 30% inactive
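DiscoveRx PathHunter D2 beta-arrestin cells (2,100/well) attached overnight, then compound-stimulated 90 min at 37 C in HBSS/10 mM HEPES/0.1% Tween-20 buffer; beta-galactosidase complementation read by luminescence after 1 h at ambient temperature. Dopamine 57 uM final (EC100) as control.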
D2 PAM – Beta-Arrestin HTS for Positive Allosteric Modulators of the Human D2 Dopamine Receptor: Potentiators; DiscoveRx D2 beta-arrestin cells, luminescence, 90 min; 100% = 57 uM dopamine signal; potentiation, % (test concentration not listed); 360,000 tested, 0.23% active; AID 624464, 2012; active = potentiation of 50% or more; inconclusive = 30% to 50%; inactive = 30% or less;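 further: compound concentration not given in the record; tested on top of an EC20 dose of dopamine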
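PathHunter beta-arrestin assay in DiscoveRx D2 cells. Compounds were added with an EC20 of dopamine (50 nM final) for 90 min at 37 deg C. Luminescence was read 1 h after detection reagent, with 57 uM dopamine as the EC100 control.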
PINK1 modulator – A Quantitative High throughput Screen to Identify Chemical Modulators of PINK1 Expression. PINK1 immunofluorescence, high-content cytometry, 24 h. 410,000 tested, 0.2% active. Potency, µM (top dose mostly 76.6 µM), for inactives: top-dose activation (PINK1 increase), most hits filed as activators; active = well fitted activation curve with a large enough effect; inconclusive = small, poorly fitted or top-dose-only effect; inactive = flat fitted curve, though single readings scatter; cell line not stated here;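 further: potency means the concentration at half of the fitted maximal effect; % of control where 0% means no effect; nearly all actives have a fitted effect of over 65% in size; a mitochondrial uncoupler was the plate control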
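Stable cell line treated 24 h with compounds at 5 concentrations (CCCP controls), then fixed and immunostained for PINK1 plus nuclear and cell stains; PINK1 immunofluorescence quantified by laser-scanning microplate cytometry.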
CtBP-E1A inh – qHTS Assay for Inhibitors of the CtBP/E1A Interaction. CtBP / adenovirus E1A interaction (AlphaScreen). AID 651724, 2012. 340,000 tested, 0.49% active. activity change, % (test concentration not listed). AlphaScreen GST-E1A/His-CtBP binding, 1536-well; stronger effect = lower value; control for the full effect not named in the record; in the data active means activity change below about -65%; inconclusive means about -30% to -65%; inactive means above about -30%; further: on the % scale 0 is the no-effect control and ±100 the full control effect; compound concentration not given in the record
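Steps: dispense buffer (Tris pH 8.0, NaCl 300 mM, TCEP 1 mM, BSA, Tween 20); add 5X protein mix (GST-E1A, His-CtBP, 125 nM each); pin 23 nL compound; 2 h at 37 °C, dark; add 5X beads (50 ug/mL); 1 h; read.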
Six1-Eya2 blk – qHTS Assay for Inhibitors of the Six1/Eya2 Interaction. Homeobox protein SIX1 (Homo sapiens) + Protein phosphatase EYA2 (Homo sapiens), …. AlphaScreen GST-Six1/His-Eya2 binding, biochemical; stronger effect = lower value; control for the full effect not named in the record. activity change, % (no concentration beside the values). 360,000 tested, 0.56% active; in the data active = activity change below about -65%; inconclusive = about -30% to -65%; inactive = above about -30%; further: on the % scale 0 is the no-effect control and ±100 the full control effect; compound concentration not given in the record
Target sequence (O00167 whole entry, looked up): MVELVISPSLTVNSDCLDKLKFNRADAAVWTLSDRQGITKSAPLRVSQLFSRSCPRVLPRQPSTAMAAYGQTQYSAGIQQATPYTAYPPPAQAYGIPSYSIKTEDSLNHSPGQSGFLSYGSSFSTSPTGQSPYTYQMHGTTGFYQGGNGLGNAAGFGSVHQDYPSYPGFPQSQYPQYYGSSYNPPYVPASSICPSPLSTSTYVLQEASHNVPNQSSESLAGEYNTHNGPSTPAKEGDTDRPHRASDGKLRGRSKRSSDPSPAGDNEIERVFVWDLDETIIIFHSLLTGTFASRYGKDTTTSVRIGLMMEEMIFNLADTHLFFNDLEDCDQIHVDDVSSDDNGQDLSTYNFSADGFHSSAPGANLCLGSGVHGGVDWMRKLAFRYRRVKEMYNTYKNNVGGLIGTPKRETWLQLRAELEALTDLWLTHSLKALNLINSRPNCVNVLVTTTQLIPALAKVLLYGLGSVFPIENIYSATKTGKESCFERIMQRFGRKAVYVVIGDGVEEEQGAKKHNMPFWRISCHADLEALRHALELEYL
Target sequence (Q15475 whole entry, looked up): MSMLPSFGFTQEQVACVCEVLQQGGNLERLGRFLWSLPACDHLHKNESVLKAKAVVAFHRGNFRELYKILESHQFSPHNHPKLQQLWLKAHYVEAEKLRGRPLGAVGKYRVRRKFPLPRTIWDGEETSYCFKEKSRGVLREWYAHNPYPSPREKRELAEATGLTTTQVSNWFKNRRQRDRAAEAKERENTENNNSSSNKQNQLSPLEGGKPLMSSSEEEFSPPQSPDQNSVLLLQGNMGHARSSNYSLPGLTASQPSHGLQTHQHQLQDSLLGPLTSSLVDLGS
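Compounds are tested against tagged Six1 and Eya2 proteins bridged by glutathione donor and nickel acceptor beads; after a one-hour incubation at 37 °C without light, AlphaScreen emission is recorded.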
TRPML1 agonist – qHTS for Agonists of the Human Mucolipin Transient Receptor Potential 1 (TRPML1). activation, % (concentration not given with the values). TRPML1-expressing cells, Ca2+ dye fluorescence, FDSS; host cell line not named in the record; reference of the full effect not given here. Mucolipin-1 (Homo sapiens), Q9GZU1. 410,000 tested, 0.12% active; in the data active = activation above about 50%; inconclusive = about 30% to 50%; inactive = below about 30%; further: 0% is about no effect; the text of the record puts the active cut at 80%
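Calcium fluorescence on an FDSS kinetic reader gave the read-out. Tet-induced TRPML1-DL cells were plated overnight, dye-loaded (Ca8 with quencher, 45-90 min, room temperature, dark), then read 110 s after compound addition, and again 110 s after 4uM final 54-4 (EC80).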
* hit, by the source's call; u = inconclusive; x = no result given; [ ] = remark or other dose.

Value order: TRPML1 agonist	Six1-Eya2 blk	PINK1 modulator	CtBP-E1A inh	D2 PAM	D2 agonist
> CCCCn1c(=N)n(CC(O)COc2cccc(C)c2)c2ccccc21 (stereo not given)
 : -0.8	-3	0.1%[38.3 µM]	-3	-16	-1.3
> CCn1c(C)cs/c1=N\S(=O)(=O)c1ccccc1
 : -0.7	2	1.1%	2	-16	-2.3
> O=C(CSCc1c(Cl)cccc1Cl)NN=C1CCCC1
 : 0.9	4	1.0%	3	4	0.4
> CN(CC(=O)N1CCN(Cc2ccccc2)CC1)C(=O)Cc1cccc2ccccc12
 : 0.8	0	0.9%	9	-15	0.4
> COC(=O)C1CC(O)CN1C(=O)NC1CCCCC1 (stereo not given)
 : 0.6	6	-0.7%	-18	-2	-3.2
> CC(=O)c1ccc(NC(=O)CSc2n[nH]c(-c3cccnc3)n2)cc1
 : -0.2	-4	2.1%	-22	-4	1.1
> OCC1(Cc2cccc(Cl)c2)CCCN(Cc2sc(N3CCCC3)nc2Cl)C1 (stereo not given)
 : u	-12	13%	-7	-18	-0.2
> CC(NC(=O)CCc1ccc(S(=O)(=O)NC2CCCCC2)cc1)c1ccccc1 (stereo not given)
 : 0.1	9	2.8%	8	-3	-4.2
> O=C(Cn1ccc([N+](=O)[O-])n1)NCCc1c[nH]c2ccccc12
 : -0.6	2	-2.2%	3	-1	2.3
> CCCCn1c(N)c(N(CCOC)C(=O)c2ccc(-c3ccc([N+](=O)[O-])cc3)o2)c(=O)[nH]c1=O
 : 1.1	-21	-1.0%	-3	2	3.1
> Cc1c(NC(=S)NC(=O)CC(C)C)c(=O)n(-c2ccccc2)n1C
 : -0.3	-1	-1.1%	x	-12	3.0
> CNC(=O)/C(C#N)=C\c1ccc(CNS(=O)(=O)c2ccccc2)o1
 : -0.2	3	1.0%	0	1	-3.3
> Cc1ccc([C@H]2N[C@]3(CCCN(Cc4ccc(F)cc4)C3=O)[C@H]3C(=O)N(C)C(=O)[C@@H]23)cc1
 : -0.5	-17	2.5%	-21	-6	-3.6
> CCCCNC(=O)CCc1nc2cccnc2n1Cc1ccc(OC)cc1
 : 0.2	5	-0.7%	8	-10	-1.9
> C=Cc1ccc(Cn2c(C)c(C(=O)NCc3cccc(C(F)(F)F)c3)sc2=O)cc1
 : 0.8	-6	0.6%	1	-1	8.3
> Cc1cc(OC(=O)c2cccc(C(F)(F)F)c2)c([N+](=O)[O-])c(=O)[nH]1
 : -0.8	2	2.6%	0	-3	-5.0
> COCc1cc(C)nc(Nc2cc(C)ccc2C)c1C#N
 : 1.0	25	1.1%[38.3 µM]	45	-19	-2.6
> COc1cccc(/C=C/C(=O)NCc2cn3cc(Cl)ccc3n2)c1
 : 0.7	17	-2.5%	-21	-8	-2.8
> COc1ccc(N2CCN(CC(=O)NCc3ccc(Cl)cc3)CC2)cc1
 : 0.3	-19	-0.7%	-3	-4	4.4
> C/C(=N\NC(=S)Nc1cccc(C)c1)c1cccc(N)c1
 : 0.1	-16	3.4%	2	0	-4.7
> N/C(=N\OC(=O)/C=C/c1ccccc1)c1ccccn1
 : -0.5	-4	5.9%	-8	8	4.3
> Cc1cc(C)cc(NC(=O)CSc2n[nH]c(-c3cccnc3)n2)c1
 : 0.7	25	-2.2%	1	-9	-5.2
> COc1ccc(NS(=O)(=O)c2cc(NC(=O)c3ccc(=O)[nH]n3)ccc2C)cc1
 : -0.9	-15	5.6%	x	-10	-3.9
> COc1ccc(NC(=O)c2ccco2)cc1NC(=O)c1cccnc1
 : 0.2	-1	3.9%[38.3 µM]	5	3	-0.5
> CC(=O)C1CCC2C3CCC4=CC(=O)CCC4(C)C3(F)C(O)CC12C (stereo not given)
 : -0.2	1	0.4%	-1	15	8.0
> O=S(=O)(N/N=C\c1ccc2c(c1)OCO2)c1ccc(Cl)cc1
 : 0.6	-2	2.8%[38.3 µM]	9	-3	-2.3
> CC(NC(=O)C1CCC(C(C)(C)C)CC1)C(c1ccccc1)N1CCOCC1 (stereo not given)
 : -0.9	0	1.8%	-2	4	-0.1
> Cc1cc(C)n2c(SC/C(O)=C(\C#N)c3nc4ccccc4[nH]3)nnc2n1
 : 0.0	-16	-0.2%	u	12	3.0
> COc1ccc(OCC(=O)N/N=C/c2ccc(N(C)C)cc2)cc1
 : 1.0	-13	0.2%	-12	-3	2.1
> CCNC(=S)N(CCc1c(C)[nH]c2ccc(C)cc12)Cc1cccnc1
 : -1.3	0	1.1%	-10	-10	-3.3
> CC1(C)C[C@H]2C3=CCC4[C@@]5(C)CC[C@H](O)[C@](C)(CO)C5CC[C@@]4(C)[C@]3(C)C[C@@H](O)[C@@]2(CO)[C@@H](O)[C@@H]1O (stereo not given in full)
 : 4.8	0	0.3%	7	-2	2.3
> Cc1ccc(C(=O)Nc2nc(-c3ccc4c(c3)OCCO4)cs2)o1
 : -0.3	-11	-1.6%	-8	-13	-3.8
> CCc1nc(NCc2ccccn2)c2oc3ccccc3c2n1
 : 1.1	-2	0.7%	3	-3	-2.9
> CN1CCCN(Cc2cccc3ccccc23)CC1
 : -0.5	-3	-1.9%	x	-6	1.1
> COc1ccccc1NC(=O)c1ccccc1C(=O)Nc1ccccc1OC
 : -0.5	3	-0.6%	-4	-13	-3.2
> COc1ccccc1NC(=O)c1ccccc1Nc1ccccc1
 : -0.4	-11	10%	0	-9	-3.2
> COc1ccc(OCC(=O)NCC(c2cccs2)N2CCOCC2)cc1 (stereo not given)
 : 0.6	4	1.1%	3	0	0.7
> CC(C)NC(=S)NC(=O)/C=C/c1ccc(F)cc1
 : -0.3	-1	14%	3	-25	2.8
> C=CC[C@@H](CC(=O)N[C@@H](CO)Cc1ccccc1)C(=O)N[C@H](COC(=O)[C@@H](CC=C)Cc1ccc(F)cc1)Cc1c[nH]c2ccccc12
 : -0.9	-7	4.2%	-2	5	-4.9
> COc1ccccc1CNC(=O)CCCNC(=O)c1ccc(Cl)cc1
 : 0.7	-1	0.3%	2	-9	-0.1
> O=C(CNS(=O)(=O)c1ccccc1)N1CCN(Cc2ccccc2)CC1
 : 0.2	1	0.0%	-4	-34	-4.9
> C[C@H](CO)N1C[C@H](C)[C@@H](CN(C)C(=O)Nc2ccccc2)Oc2ccc(NC(=O)NC3CCCCC3)cc2C1=O
 : -0.4	-16	-1.0%	-19	-3	0.0
> CN(C)CCCNc1nc(-c2ccccc2)nc2ccccc12
 : -0.2	1	1.0%	2	-7	1.7
> Fc1cccc(-c2oncc2-c2nnnn2-c2ccc(Cl)cc2)c1
 : 0.2	8	-0.4%	12	-7	-3.3
> COc1cc(OC)cc(OCC(O)Cn2ccnc2)c1 (stereo not given)
 : 0.3	2	x	6	3	1.1
> O=C(CCCc1ccccc1)c1ccc2c(c1)OCCO2
 : 2.8	45	-0.3%[38.3 µM]	70	-11	2.8
> C[C@@H](CO)NC(=O)c1[nH]cnc1C(=O)Nc1cccc(Cl)c1
 : x	-2	0.4%	-19	x	-0.5
> Cn1ccsc1=NC(=O)c1ccc(OC(F)(F)F)cc1
 : 1.0	-1	3.2%	16	1	-0.1
> O=C(CSc1nnc(-c2ccccn2)n1Cc1ccco1)c1ccccc1
 : 1.2	-25	-1.5%	u	-15	-1.7
> CSc1nc(N(CCO)CCO)c2sc3nc(-c4ccco4)c4c(c3c2n1)CCC4
 : -0.9	u	-2.6%	u	24	-3.8
> C/C(=N/NC(=O)c1ccc(C)s1)c1cccnc1
 : 1.1	-11	-1.4%	-28	-36	-4.3
> CC(=O)Nc1c(F)cc(Br)cc1F
 : 0.1	6	-0.8%	-4	-9	-3.0
> O=C(CSc1nc2c(c(=O)n1-c1ccc(Cl)cc1)SCC2)N1CCOCC1
 : -0.4	3	-1.3%	-23	1	-7.3
> CCCCn1c(SCC(=O)N2CCC(C(=O)OCC)CC2)nc2cc(S(N)(=O)=O)ccc21
 : -0.6	-10	0.7%	1	1	-1.9
> COc1cc(OC)c2cc(C(=O)N[C@H](C(=O)N3CCC[C@H]3C(=O)O)C(C)C)n(C)c2c1
 : x	0	-0.5%	1	-10	4.9
> C=C(C)C(=O)Nc1cccc(C2=NOC3(C2)C[C@H](C(N)=O)N(C(=O)COc2ccc(Cl)cc2)C3)c1 (stereo not given in full)
 : 0.1	-20	1.1%	1	-12	1.8
> CCSc1nnc(NC(=O)CN2C(=O)C3CC=CCC3C2=O)s1 (stereo not given)
 : 0.1	6	-1.7%	x	-6	0.4
> COC(=O)Nc1nc(-c2ccccc2)c(C(=O)c2ccccc2)s1
 : 0.3	4	5.9%	-1	-14	-0.9
> Fc1cc(F)c2nc(Nc3nc4cc5c(cc4s3)OCO5)sc2c1
 : 0.1	496	-1.3%	23	1	-4.3
> Cc1ccc(C(=O)Nc2cccc(C(=O)O)c2)cc1S(=O)(=O)N1CCCCC1
 : -0.4	5	0.1%	4	13	-3.3

3 compounds from above, arranged by the value under D2 agonist, falling:
| Structure | Six1-Eya2 blk | PINK1 modulator | CtBP-E1A inh | D2 PAM | D2 agonist |
| --- | --- | --- | --- | --- | --- |
| CCn1c(C)cs/c1=N\S(=O)(=O)c1ccccc1 | 2 | 1.1% | 2 | -16 | -2.3 |
| COC(=O)C1CC(O)CN1C(=O)NC1CCCCC1 (stereo not given) | 6 | -0.7% | -18 | -2 | -3.2 |
| CNC(=O)/C(C#N)=C\c1ccc(CNS(=O)(=O)c2ccccc2)o1 | 3 | 1.0% | 0 | 1 | -3.3 |

Given in CSV form: part of the list above
smiles,TRPML1 agonist,Six1-Eya2 blk,PINK1 modulator,CtBP-E1A inh,D2 PAM,D2 agonist
CC(=O)Nc1c(F)cc(Br)cc1F,0.1,6,-0.8%,-4,-9,-3.0
CSc1nc(N(CCO)CCO)c2sc3nc(-c4ccco4)c4c(c3c2n1)CCC4,-0.9,u,-2.6%,u,24,-3.8

Remaining list, next part:
Value order: TRPML1 agonist	Six1-Eya2 blk	PINK1 modulator	CtBP-E1A inh	D2 PAM	D2 agonist
> Oc1ccc(Cl)c2cccnc12
 : 0.3	-91*	5.7%	-95*	-14	-6.7
> CN(C)C(CNC(=O)C1CCN(S(=O)(=O)c2ccccc2C(F)(F)F)CC1)Cc1ccccc1 (stereo not given)
 : -0.5	2	-3.7%	8	-17	-1.6
> O=C(COC(=O)CNC(=O)c1sc2ccccc2c1Cl)Nc1cc(Cl)cc(Cl)c1
 : -0.5	8	-0.3%	0	-8	-3.1
> CC(Sc1nnc(-c2ccco2)n1N)C(=O)NCc1ccc2c(c1)OCO2 (stereo not given)
 : -0.5	0	-0.7%	0	2	-2.6
> CCOc1ccc(C(=O)OC2CCCN(C)C2)cc1 (stereo not given)
 : -0.3	-6	-0.8%	x	-1	-0.9
> CC1(NC(=O)C23CC4CC(CC(C4)C2)C3)CCS(=O)(=O)C1 (stereo not given)
 : 1.7	1	-1.0%	6	-2	-0.3
> CCSc1nc(=S)cc(C)[nH]1
 : 3.9	10	-1.4%	x	u	-0.2
> CC(C)C(=O)OC1CCS(=O)(=O)c2sccc21 (stereo not given)
 : -0.3	2	0.9%	10	-5	-1.9
